D2 ag = human D2 receptor agonism in beta-arrestin assay. 360,000 compounds, 0.084% hits. DiscoveRx PathHunter D2 beta-arrestin, luminescence, 90 min; 100% = 57 uM dopamine signal. P14416. activation, % (no concentration beside the values). AID 624465; in the data active = activation above about 40%; inconclusive = about 15% to 40%; inactive = below about 15%; also: compound concentration not given in the record; the text of the record calls up to 30% inactive
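DiscoveRx PathHunter D2 beta-arrestin cells (2,100/well) attached overnight, then compound-stimulated 90 min at 37 C in HBSS/10 mM HEPES/0.1% Tween-20 buffer; beta-galactosidase complementation read by luminescence after 1 h at ambient temperature. Dopamine 57 uM final (EC100) as control.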
gsp antagonist = gsp mutant antagonism; gsp-mutant cells, cAMP HTRF, 30 min; control for the full effect not named in the record; Potency, µM (top dose mostly 76.9 µM), for the others: at the top dose activity change, negative = inhibition, hits mostly inhibitors; 340,000 compounds, 0.4% hits; AID 624288; active = falling curve of any shape with a large fitted effect; inconclusive = falling curve, mostly with a smaller effect; inactive = flat or rising curve; cell line not stated here;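 also: intracellular cAMP measured with PDE inhibitor Ro 20-1724 present during compound exposure; potency is read from the fitted curve at half-maximal effect; % is scaled to controls: 0 for no effect and ±100 for the full control effect; nearly all actives have a fitted effect of over 65% in size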
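Cells, 2000/well, grown 16–24 h in DMEM 10% FBS with 0.5 mg/ml G418, then compounds plus […] (300 uM addition stock), 30 min at 37C. cAMP read by HTRF (cAMP-d2 and anti-cAMP antibody-K in lysis buffer) after 30 min RT.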
CtBP-E1A blk = blocks the CtBP interaction with E1A; AlphaScreen GST-E1A/His-CtBP binding, 1536-well; stronger effect = lower value; control for the full effect not named in the record; activity change, % (no concentration beside the values); 340,000 compounds, 0.49% hits; AID 651724; in the data active means activity change below about -65%; inconclusive means about -30% to -65%; inactive means above about -30%; also: % is scaled to controls: 0 for no effect and ±100 for the full control effect
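GST-E1A and His-tagged CtBP (125 nM each as 5X stock) were preincubated with pin-transferred compound for 2 h at 37 °C in the dark, then glutathione donor and nickel acceptor beads were added for 1 h before AlphaScreen reading.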
gsp ag = activates gsp, the McCune-Albright syndrome mutation; gsp mutant cells, cAMP HTRF, 30 min; control for the full effect not named in the record; Potency, µM (doses to about 76.9 µM), without a hit: at the highest dose activation (cAMP increase), actives largely listed as activators; AID 624287; 340,000 compounds, 0.13% hits; active = well fitted activation curve with a large enough effect; inconclusive = small, poorly fitted or top-dose-only effect, or another doubt; inactive = no such curve, though single readings can be large or run the other way; cell line not stated here;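 also: phosphodiesterase inhibitor Ro 20-1724 added with compounds to block cAMP breakdown; potency is read from the fitted curve at half-maximal effect; nearly all actives have a fitted effect of over 60% in size; about a fifth of the inactives were tested at one dose only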
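Cells in DMEM/10% FBS with G418 were pretreated with compounds in DMSO plus […] (300 uM stock) for 30 min at 37C. cAMP was measured by HTRF (cAMP-d2 plus anti-cAMP antibody-K) after 30 min at room temperature.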
Six1-Eya2 inh = inhibitors of human Six1/Eya2 interaction; AID 651725; AlphaScreen GST-Six1/His-Eya2 binding, biochemical; stronger effect = lower value; control for the full effect not named in the record; activity change, % (test concentration not listed); 360,000 compounds, 0.56% hits; in the data active = activity change below about -65%; inconclusive = about -30% to -65%; inactive = above about -30%; also: % is scaled to controls: 0 for no effect and ±100 for the full control effect
Target sequence (O00167 whole entry, looked up): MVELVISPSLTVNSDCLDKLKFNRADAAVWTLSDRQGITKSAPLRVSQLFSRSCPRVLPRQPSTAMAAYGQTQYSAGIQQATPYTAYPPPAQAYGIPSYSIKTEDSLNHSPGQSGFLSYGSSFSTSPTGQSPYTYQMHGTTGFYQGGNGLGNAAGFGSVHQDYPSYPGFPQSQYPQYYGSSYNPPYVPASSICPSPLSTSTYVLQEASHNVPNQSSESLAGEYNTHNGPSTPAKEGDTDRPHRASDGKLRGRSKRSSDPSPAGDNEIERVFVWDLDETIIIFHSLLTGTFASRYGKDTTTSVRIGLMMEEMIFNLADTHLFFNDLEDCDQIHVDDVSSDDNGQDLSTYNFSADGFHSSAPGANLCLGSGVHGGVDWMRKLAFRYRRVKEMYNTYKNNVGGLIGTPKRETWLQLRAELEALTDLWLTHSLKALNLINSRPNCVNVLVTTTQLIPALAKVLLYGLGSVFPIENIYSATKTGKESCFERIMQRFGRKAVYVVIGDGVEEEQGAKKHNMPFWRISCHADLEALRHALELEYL
Target sequence (Q15475 whole entry, looked up): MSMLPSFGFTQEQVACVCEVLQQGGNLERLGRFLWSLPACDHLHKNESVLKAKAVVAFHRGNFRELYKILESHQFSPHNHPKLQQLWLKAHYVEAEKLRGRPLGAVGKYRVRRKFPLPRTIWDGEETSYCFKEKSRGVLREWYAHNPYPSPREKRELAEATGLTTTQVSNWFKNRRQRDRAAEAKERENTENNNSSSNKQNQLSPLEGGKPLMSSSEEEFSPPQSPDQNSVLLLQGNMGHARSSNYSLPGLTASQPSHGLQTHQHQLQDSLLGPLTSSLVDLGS
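Homogeneous AlphaScreen proximity assay pairing GST-Six1 with His-tagged Eya2 (added as 5X mix: 250 nM and 500 nM) in 50 mM Tris pH 8.0, 300 mM NaCl, 1 mM TCEP. Glutathione donor and nickel acceptor beads; 1 h, 37 °C, dark.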
D2 potentiator = potentiates the human D2 dopamine receptor allosterically; P14416; DiscoveRx D2 beta-arrestin cells, luminescence, 90 min; 100% = 57 uM dopamine signal; potentiation, % (no concentration beside the values); 360,000 compounds, 0.23% hits; AID 624464; active = potentiation of 50% or more; inconclusive = 30% to 50%; inactive = 30% or less;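 also: compound concentration not given in the record; tested on top of an EC20 dose of dopamine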
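PathHunter beta-arrestin assay in DiscoveRx D2 cells. Compounds were added with an EC20 of dopamine (50 nM final) for 90 min at 37 deg C. Luminescence was read 1 h after detection reagent, with 57 uM dopamine as the EC100 control.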
* marks the source's active call; other numbers are inactive results; ? = inconclusive; / = no result given; [ ] = remark or other dose.

SMILES	D2 ag	gsp antagonist	CtBP-E1A blk	gsp ag	Six1-Eya2 inh	D2 potentiator
CCCC(=O)C1=C(N(C)c2ccccc2)CC(C)(C)C(C(=O)OC)C1=O (centres undefined)	-1.0	10.4%	-9.2	27.8%	-0.1	-9.6
Cc1ccc(S(=O)(=O)N2CCOCC2)cc1NC(=O)COC(=O)CNC(=O)c1ccc(C(C)(C)C)cc1	-5.9	-8.2%	-9.3	-16.5%[15.4 µM]	-2.5	-6.0
O=C(CNS(=O)(=O)c1ccccc1)NCc1ccco1	0.0	-3.7%	7.6	5.4%[15.4 µM]	0.3	7.3
CCOc1ccc(/C=C2\SC(=S)N(CC(=O)NCCCN3CCOCC3)C2=O)cc1	-0.3	-10.4%	-23.8	13.1%[15.4 µM]	-9.4	-12.1
Cc1ccnc(SCc2ccc([N+](=O)[O-])cc2)n1	-1.7	-0.1%	-2.3	-9.1%	5.1	-2.8
C/C(CC(=O)Nc1cccnc1)=N\NC(=O)C(=O)Nc1cccc(C)c1	-1.7	1.9%	1.1	?	-0.7	-3.5
CCOc1ccc(NC(=O)C(C)NS(=O)(=O)c2ccc(NC(C)=O)cc2)cc1 (centres undefined)	1.0	-3.9%	11.8	-7.9%[15.4 µM]	2.7	16.7
O=C(NP(=O)(N1CCOCC1)N1CCOCC1)C1=C(N2CCOCC2)/C(=C\c2ccccc2)CC1	0.0	/	1.2	-14.3%[15.4 µM]	-2.3	-11.6
COc1cccc(C(=O)/C=C2\Sc3ccccc3N2C)c1	1.2	?	25.8	0.0%[15.4 µM]	33.9	-11.1
O=C(CCN1CCC(c2cccs2)=N1)c1cccs1	0.1	-4.0%	/	20.4%	4.7	-0.1
COc1ccc(CN2CCSCC2)cc1O	-1.5	-9.5%	-0.3	-3.2%	-1.6	-21.6
CCOc1ccc(C(=O)N/N=C/c2ccc(SC)cc2)cc1	-2.8	3.5%	-2.8	-41.6%[inhibitor]	0.7	2.5
O=c1cc(C(F)(F)F)nc(SCc2cccc3ccccc23)[nH]1	-3.1	-8.5%	/	0.9%	6.9	11.4
O=S(=O)(c1ccc(Oc2ncnc3scc(-c4ccccc4)c23)cc1)N1CCOCC1	-0.5	-14.9%	-14.4	-29.9%	-18.3	-9.7
Cc1ccc(NC(=O)Cc2nnc(SCC(=O)NC3CCCC3)n2C)c(C)c1	-5.4	8.9%	-2.8	-0.6%	1.1	-4.4
COc1ccc(CNC(=O)COC(=O)C2CCC(C(C)(C)C)CC2)cc1 (centres undefined)	0.6	-9.1%	3.4	-19.9%	10.2	-6.3
Cc1cc(NC(=O)Cn2nnc(-c3ccccc3N)n2)no1	-1.6	3.4%	10.8	1.0%	4.2	1.0
CC(=O)c1ccc(NC(=O)c2ccc(C)c(S(=O)(=O)N3CCOCC3)c2)cc1	6.2	-29.9%	14.3	11.0%[15.4 µM]	-21.0	-2.8
Cc1ccc(C(=O)Nc2ccn(C)n2)cc1	6.4	11.2%	-2.4	3.9%	4.9	-1.4
Cc1ccc(S(=O)(=O)N2CCOCC2)cc1C(=O)OCC(=O)c1ccc[nH]1	1.9	0.9%	0.7	13.4%	1.7	5.4
C[C@H](CO)N1C[C@H](C)[C@@H](CN(C)S(=O)(=O)c2cccc(F)c2)OCc2cnnn2CCCC1=O	-2.5	/	6.5	23.9%	-1.6	2.5
Fc1ccc(Nc2nc(NCc3ccco3)c3ccccc3n2)cc1	-2.9	-8.0%	/	-5.7%	-2.9	-32.9
CC1CCc2c(sc(NC(=O)CSc3nc(N)cc(=O)[nH]3)c2C(N)=O)C1 (centres undefined)	-0.6	15.0%	-6.8	7.7%	-2.8	-3.3
CCOC(=O)CSc1nc2ccsc2c(=O)[nH]1	-0.4	-1.0%	6.0	-6.2%	-5.6	6.8
COc1ccc2nc3oc(C(=O)N4CCCCC4)cc3cc2c1	-1.8	-11.6%	-22.0	10.5%	-18.2	-17.7

Additional records follow:
SMILES	D2 ag	gsp antagonist	CtBP-E1A blk	gsp ag	Six1-Eya2 inh	D2 potentiator
Cc1onc(-c2c(Cl)cccc2Cl)c1CO/N=C(\C#N)c1c(Cl)cccc1Cl	-3.6	-1.6%	12.5	1.5%[15.4 µM]	14.3	-3.6
COC(=O)/C=c1/sc2n(c1=O)CCN=2	-0.1	0.0%	3.5	-3.3%	-1.6	-9.9
COc1ccc(CN(CC(=O)NC2CCCC2)C(=O)CCC(=O)Nc2nccs2)cc1	-3.9	1.9%	8.1	1.2%[15.4 µM]	14.8	-9.1
Cn1ncc(=S)[nH]c1=S	-4.3	8.8%	-1.3	-0.5%	4.8	-14.8
CCOC(=O)c1cn2nc(-c3ccc(OC)cc3)cc2nc1C1CCN(C(=O)OC(C)(C)C)CC1	-2.5	-2.7%	5.0	4.3%	3.2	8.1
C=C(C)Cc1c(C)c(C#N)c2nc3ccccc3n2c1N1CCCCC1	-1.7	-4.2%	8.8	-8.1%	7.9	6.8
CC(C)CCC(=O)Nc1cc(S(=O)(=O)N2CCOCC2)ccc1N1CCCC1	-0.3	/	1.3	?	4.1	-5.2
CC(=O)c1cc(CN2CCN(CC=C(C)C)C(CCO)C2)cs1 (centres undefined)	-1.3	8.3%	4.4	12.0%	2.6	-11.1
COc1cccc(CNC(=O)CCNS(=O)(=O)c2ccc(Br)s2)c1	0.3	-11.5%	12.4	17.0%[15.4 µM]	3.7	-1.0
COCCn1c(SCC(=O)NCCCN2CCCC2=O)nc2ccccc2c1=O	1.3	-1.1%	8.0	5.0%	6.1	-11.4
Cc1cccc(N2CCN(C(=O)Cn3nc(C)n4cccc4c3=O)CC2C)c1 (centres undefined)	-5.9	2.0%	-3.2	?	-1.1	-6.6
COc1ccc(Cl)cc1S(=O)(=O)NC(C)C(=O)NCCN1CCOCC1 (centres undefined)	-4.1	-7.1%	0.8	-1.8%[15.4 µM]	3.0	-3.4
C[C@H]1CN=C(Nc2ccccc2)N1CCc1ccccc1	1.0	9.8%	-0.4	/	4.6	-8.0
CN(Cc1nc(-c2ccccc2)no1)C(=O)c1ccc2c(c1)OCO2	3.7	0.9%	-17.1	6.4%[15.4 µM]	13.0	-14.9
COC(=O)N/N=C/C1=CCC2CC1C2(C)C (centres undefined)	-4.6	/	0.0	2.7%[15.4 µM]	3.2	11.7
Cc1cccc(N=N/C(=C\O)C(=O)c2cccs2)c1	-1.5	/	-13.9	-8.2%[15.4 µM]	-19.6	-12.4
Cc1ccc(C(=O)Nc2ccncc2)cc1S(=O)(=O)N1CCOCC1	0.6	10.1%	-17.5	-7.9%[15.4 µM]	-12.0	-4.8
C=CCn1c(SCC(=O)Nc2cc(C)on2)nnc1-c1ccccc1OC	4.5	-5.2%	/	-4.0%	1.1	-0.3
O=C(Oc1ccc(Br)cc1C(=S)N1CCOCC1)c1ccccc1	-5.9	/	-19.8	-0.7%[15.4 µM]	-14.3	-17.4
Cc1ccc(-c2cccc(CN3CCN(C(C)C)C(CCO)C3)c2)o1 (centres undefined)	-1.2	2.2%	-6.7	?	-7.7	-3.0
CCN1C(=S)SC(=O)C1=C1C=C(C)N(Cc2ccco2)C(C)=C1	-4.9	?	-5.0	-5.4%	-13.0	-14.9
Cc1cc(C(=O)N/N=C/C=C/c2ccccc2[N+](=O)[O-])c(C)o1	0.8	-6.1%	6.8	-6.2%[15.4 µM]	0.0	-6.1
O=C(O)C1=C[C@H](c2ccc3c(c2)OCO3)C[C@H](OCCCCO)O1	0.8	-0.6%	1.6	/	-0.5	-3.4
Cc1onc(-c2ccccc2)c1C(=O)Nc1nc(-c2ccc(F)c(F)c2)cs1	-0.9	4.2%	-0.2	1.4%	9.8	-3.9
CCOc1cc(/C=N/NC(=O)Cc2ccc(C(F)(F)F)cc2[N+](=O)[O-])ccc1O	0.3	-10.3%	2.1	-32.6%[inhibitor]	-1.6	-30.8

(list continues)
SMILES	D2 ag	gsp antagonist	CtBP-E1A blk	gsp ag	Six1-Eya2 inh	D2 potentiator
CC(C)Cc1ccc(C(C)C(=O)Nc2ccc(O)cc2)cc1 (centres undefined)	5.3	6.1%	/	-15.8%	-3.8	2.9
CCn1c(CC(=O)Nc2ccccc2F)nnc1SCC(=O)Nc1nncs1	-4.7	6.3%	-2.6	17.7%[15.4 µM]	11.6	-1.3
Cc1onc(-c2ccccc2)c1C(=O)OCC(=O)NCc1ccc(F)cc1	0.6	-7.2%	3.4	-15.6%[15.4 µM]	3.5	-1.6
Cc1noc(C)c1COc1ccccc1C(=O)NCCc1ccc(F)cc1	-2.7	3.8%	5.2	2.1%[15.4 µM]	5.2	-3.1
COC1OC2COC(c3ccccc3)OC2C(NC(C)=O)C1OC(C)=O (centres undefined)	-2.7	/	3.5	-12.0%	-2.2	-0.4
O=C(NCCc1ccccc1)c1ccnc(/C=N/O)c1	1.5	-6.2%	-20.4	?	?	-11.6
